# hNpr1 antagonist = Natriuretic polypeptide receptor (hNpr1) antagonism - Primary qHTS; HEK293 hNpr1 GloSensor cGMP, ANP-stimulated luminescence; Potency, µM (doses to about 46.3 µM), inactives show at the highest dose activity change, negative = inhibition, most hits filed as inhibitors; hit rate 1.6% among 76,000; active = well fitted inhibition curve with a large enough effect; inconclusive = small, poorly fitted or top-dose-only effect; inactive = no such curve, though single readings can be large or run the other way;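 also: nearly all actives have a fitted effect of over 60% in size; nearly all hits also lower the signal before the agonist is added; a reference antagonist and vehicle were the controls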
# Target sequence (P16066 whole entry, looked up): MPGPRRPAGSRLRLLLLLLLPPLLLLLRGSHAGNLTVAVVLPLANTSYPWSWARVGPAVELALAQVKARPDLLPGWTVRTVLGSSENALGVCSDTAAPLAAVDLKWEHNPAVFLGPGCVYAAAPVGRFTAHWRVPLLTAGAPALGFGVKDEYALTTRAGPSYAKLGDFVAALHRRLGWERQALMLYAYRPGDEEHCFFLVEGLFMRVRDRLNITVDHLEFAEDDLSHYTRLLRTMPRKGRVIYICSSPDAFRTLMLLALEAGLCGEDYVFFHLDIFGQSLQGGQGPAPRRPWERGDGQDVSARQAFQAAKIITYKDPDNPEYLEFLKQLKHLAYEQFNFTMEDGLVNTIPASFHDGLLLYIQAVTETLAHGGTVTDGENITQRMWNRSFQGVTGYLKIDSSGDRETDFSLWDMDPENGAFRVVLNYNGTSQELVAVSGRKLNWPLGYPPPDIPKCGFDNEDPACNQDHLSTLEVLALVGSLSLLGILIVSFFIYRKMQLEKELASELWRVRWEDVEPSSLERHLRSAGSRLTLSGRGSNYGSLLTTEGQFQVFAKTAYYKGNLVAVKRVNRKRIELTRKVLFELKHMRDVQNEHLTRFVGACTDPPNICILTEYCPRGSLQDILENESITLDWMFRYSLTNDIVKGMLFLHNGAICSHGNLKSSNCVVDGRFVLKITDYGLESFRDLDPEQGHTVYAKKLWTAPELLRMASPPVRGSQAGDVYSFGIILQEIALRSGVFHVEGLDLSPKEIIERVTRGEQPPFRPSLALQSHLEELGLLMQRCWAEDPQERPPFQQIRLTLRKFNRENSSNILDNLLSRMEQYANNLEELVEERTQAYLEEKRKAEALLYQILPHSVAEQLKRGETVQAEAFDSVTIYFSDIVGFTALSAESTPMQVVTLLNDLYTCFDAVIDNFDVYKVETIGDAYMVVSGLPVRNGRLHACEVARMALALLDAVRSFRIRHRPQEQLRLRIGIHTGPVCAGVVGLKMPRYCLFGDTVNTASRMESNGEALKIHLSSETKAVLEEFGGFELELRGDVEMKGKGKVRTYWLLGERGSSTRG
#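 Compound pre-incubated 30 min at room temperature on GloSensor-loaded HEK293 cells stably carrying hNpr1 and the pGS-40F cGMP biosensor. Stimulation uses hNppA at 0.1 nM final; luminescence is taken at baseline and 20 min post-agonist.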
# * = called active by the depositor; ? = inconclusive; [ ] = dose if it differs, or a comment. % is scaled to controls: 0 for no effect and ±100 for the full control effect; potency is read from the fitted curve at half-maximal effect.
hNpr1 antagonist | mol
4.8% | CCc1ccccc1NC(=O)CN1C(=O)NC2(CCC(C)CC2)C1=O (stereo unspecified)
0.0% | CCn1ccc(C(=O)N2CCC(CC(=O)NC3CC3)C2)n1 (stereo unspecified)
1.1% | CCS(=O)(=O)N1C[C@@H](COc2ccncc2)[C@H](c2ccccn2)C1
-17.6% | Cc1[nH]cnc1C(=O)N1CCOc2c(O)cc(-c3csc4ccccc34)cc2C1
3.5% | O=C(Nc1ccccc1)NC1CCN(C(=O)N2CC3CC(C2)[C@H]2CCCC(=O)N2C3)CC1 (stereo partly specified)
-22.5% | CN(CC1CCN(CCc2ccc(Cl)cc2)CC1)C(=O)c1ccccc1C#N
-2.1% | CCOC(=O)N1CCC(n2ccnc2-c2cc3n(n2)CCNC3)CC1
1.2% | CS(=O)(=O)N1CCCC(C(=O)NC2CCCC2)CCNC(=O)CC1 (stereo unspecified)
1.5%[70.6 µM] | CN1c2cccnc2CN(C2CCC(CO)CC2)CC[C@H]1CO (stereo partly specified)
-2.8% | NCc1n[nH]c(=O)n1-c1ccc2c(c1)OCO2
-2.6% | COc1ccc(-c2cc(N3CCCN(C(=O)c4ccc(C)nc4)CC3)n[nH]2)cc1
0.0% | CCOc1cccc(CN2CCC3(CC2)CC(CC(=O)N2CCCC2)CCO3)c1 (stereo unspecified)
-15.1% | Cn1cccc1CNC(=O)C1c2ccccc2C(=O)N(Cc2ccccc2)C12CCCC2 (stereo unspecified)
-1.3% | CC(C)CCN1C(=O)CC[C@]2(C(=O)N3CCC(N4CCCCC4)CC3)CCCC[C@@H]12
0.6% | COc1ccc(S(=O)(=O)Nc2ccc3n(c2=O)C[C@H]2C[C@@H]3CN(C(=O)Nc3cc(OC)cc(OC)c3)C2)cc1
-23.9% | CN(C)C(=O)c1cc2c(s1)CCC(C(=O)N1CCN(c3ccccn3)CC1)C2 (stereo unspecified)
-2.7% | O=C(NC1CCCN(c2cc(-c3ccccc3)[nH]n2)C1)c1nccc2ccccc12 (stereo unspecified)
-6.2% | O=C(NCC1CCCO1)c1ccc(-c2ccc(N3CCCCC3)nc2)cc1 (stereo unspecified)
-14.7% | CCN(Cc1nc2ccccc2[nH]1)CC1CCCN(CCc2cccc(F)c2)C1 (stereo unspecified)
3.2% | CCCN(CC1CCOC1)C(=O)Nc1ccc(F)cc1 (stereo unspecified)
3.2% | Cc1nn(CC(=O)N2CCN(c3ccccc3F)CC2)c(=O)c2nc(C(C)C)sc12
-0.4%[70.6 µM] | O=[S+]([O-])(c1ccccc1)N1CC2(COCCN(Cc3ccsc3)C2)C1
-16.6%[70.6 µM] | COc1cccc(N2CC3(COCC2=O)CN(c2ccc(C(F)(F)F)cn2)C3)n1
-0.2% | O=C1NCCCCCN(C(=O)Nc2ccccc2F)[C@H]2CCC[C@@H]12
5.2% | COc1ccc(C(=O)N2CC(c3nc(CCOCC4CC4)no3)C2)c(OC)n1

# 6 of the entries above in order of their number in hNpr1 antagonist, largest number first:
SMILES | hNpr1 antagonist
COc1ccc(C(=O)N2CC(c3nc(CCOCC4CC4)no3)C2)c(OC)n1 | 5.2%
CCS(=O)(=O)N1C[C@@H](COc2ccncc2)[C@H](c2ccccn2)C1 | 1.1%
CCn1ccc(C(=O)N2CCC(CC(=O)NC3CC3)C2)n1 (stereo unspecified) | 0.0%
O=C1NCCCCCN(C(=O)Nc2ccccc2F)[C@H]2CCC[C@@H]12 | -0.2%
O=C(NC1CCCN(c2cc(-c3ccccc3)[nH]n2)C1)c1nccc2ccccc12 (stereo unspecified) | -2.7%
CN(CC1CCN(CCc2ccc(Cl)cc2)CC1)C(=O)c1ccccc1C#N | -22.5%

# The list goes on.
hNpr1 antagonist | mol
-5.0% | CCn1ccnc1CN1CCc2[nH]cnc2C1c1ccc(OC)c(F)c1F (stereo unspecified)
-0.9% | N#Cc1cccc(C(=O)N2CCCN(Cc3ccncc3)C(c3ccccc3)CC(=O)NCC2)c1 (stereo unspecified)
-1.2%[70.6 µM] | Cc1nc(CN2Cc3nc(-c4cn[nH]c4)ccc3OCC2=O)cs1
-13.8% | COc1ccccc1CC(=O)N1CCN(c2cc(-c3ccccc3)[nH]n2)CC1
5.3% | O=C(c1ccco1)N1CCCn2cc(-c3ccc4c(c3)OCO4)nc21
-30.4% | Cn1ccc(CN2CCn3c(nn(-c4ccc(F)cc4F)c3=O)C2)c1
-2.5% | COc1ccc(S(=O)(=O)N2CC[C@H](NC(=O)c3ccncc3)C[C@H]2C(=O)N[C@@H](CC2CCCCC2)C(N)=O)cc1
-2.4% | CCOC(=O)c1cn(C2CN(S(=O)(=O)Cc3ccccc3)C2)nn1
1.6% | Cc1nnc2n1CCC(NC(=O)c1ccc3cc[nH]c3c1)CC2 (stereo unspecified)
4.1%[70.6 µM] | c1coc(-c2nnc([C@H]3CCN(Cc4cccs4)C3)o2)c1
1.2% | O=C(c1ccc2ncccc2c1)N1CCC(N2CC3CC(C2)[C@H]2CCCC(=O)N2C3)CC1 (stereo partly specified)
0.1% | CSCC[C@@H]1NC(=O)c2cc(NC(=O)Cc3ccc4c(c3)OCC4)ccc2NC1=O
2.3% | O=C1CCN(S(=O)(=O)c2cccc(F)c2)CCCC(C(=O)NCc2ccccc2)CCN1 (stereo unspecified)
? | O=C1COc2ccc(OCc3cccnc3)nc2CN1Cc1ccccc1F
2.5% | COc1ccc(-c2nc(C(C)C)nc3c2CCN([S+](=O)([O-])c2c(C)noc2C)CC3)cc1
2.1% | CCNc1ncnc2sc3c(c12)CCN(C(=O)c1ccnn1C)C3
1.3% | Cn1nc2n(c1=O)CCC(NC(=O)CCc1nc3ccccc3[nH]1)CC2 (stereo unspecified)
-18.8% | Cc1nc(-c2ccccc2)n(CC(=O)Nc2ccc(C(C)C)cc2)c(=O)c1CCO
5.9% | c1cncc(COC2CCN(c3ncncn3)CC2)c1
3.3% | COCCN(C)Cc1nc(Cc2ccccc2Cl)no1
-1.1% | CN(CC(N)=O)C(=O)[C@@H]1[C@@H](NC(=O)Nc2ccc(F)cc2F)CCN1C(=O)c1cccn1C
-0.2% | O=C(NC[C@H]1O[C@@H](CC(=O)N2CCN(c3ccccc3)CC2)C(O)[C@@H]1O)c1cccc(F)c1 (stereo partly specified)
? | Cc1ccc(NC(=O)CCC2CCN(S(=O)(=O)c3ccccc3C)CC2)cc1F
13.3% | Cc1ccc(C)c(-c2[nH]ncc2CN2CCCC(O)(CN(C)C)C2)c1 (stereo unspecified)
-4.1% | Cc1noc(C)c1[S+](=O)([O-])N1CCC2(CC1)C(=O)Nc1ccccc12

# Next part.
hNpr1 antagonist | mol
-1.5% | Cn1cc(-c2ccncc2)cc1C(=O)N1CCN(c2ccccn2)CC1
-1.1% | Cc1cccc(CNC(=O)c2cc3c(N4CCSCC4)nc(C)cn3n2)c1
0.8% | CNC(=O)N1c2ccccc2CC1c1nc(C(C)C)no1 (stereo unspecified)
0.0% | Cn1nc2n(c1=O)CCN(S(=O)(=O)c1ccc3c(c1)CCCC3)CC2
-3.3% | CNC(=O)[C@H]1C[C@H](Oc2ccccc2)CN1Cc1ccc(OC(F)(F)F)cc1
11.2µM* | O=C(Nc1ccc(Oc2ccccc2)cc1)N[C@H]1CO[C@H]2[C@@H]1OC[C@@H]2n1nnnc1Oc1ccc(-n2ccnc2)cc1
2.2% | CCc1ccc(C(=O)NC2CCN(c3cnn(C)c(=O)c3)CC2)cc1
2.1% | O=C(CCc1ccccc1)NCC(=O)N1CCCCCCNC(=O)CC1c1ccccc1 (stereo unspecified)
-9.5% | COc1cccc(CN2CCCN(S(=O)(=O)c3ccccc3)CCC(=O)NCC2)c1
6.7% | CCOc1ccccc1C(=O)NC1CC(=O)N(CCc2ccc(F)cc2)C1 (stereo unspecified)
3.5% | Cn1cnc(S(=O)(=O)N2CCCC(C(=O)Nc3ccc(F)cc3F)CCNC(=O)CC2)c1 (stereo unspecified)
-1.8% | O=C(Cc1ccccc1)N1CCC(Oc2cccnc2)C1 (stereo unspecified)
-0.3% | CCCS(=O)(=O)N1CCCN(S(=O)(=O)c2ccccc2)CCC(=O)NCC1
-16.0%[70.6 µM] | COc1ccccc1CN1CCCn2nc(C)c(-c3cccnc3N3CCOCC3)c21
12.4% | COc1ccc2c(c1)OCC(CNC(=O)CN1CCOCC1)C2 (stereo unspecified)
? | CN1CCN([C@@H]2[C@H](O)[C@H](CO)O[C@@H]2CN(Cc2ccc(Cl)cc2)Cc2cccc(Cl)c2)CC1
-15.0% | Cn1nc(C(=O)N2CCc3nc4cc[nH]n4c(=O)c3C2)c2ccccc21
-0.6% | COCCn1ncc(N2CCCC(CC(=O)N(C)Cc3cccnc3)C2)cc1=O (stereo unspecified)
-2.5% | Cc1ccc(CN2CC[C@@H]3[C@H]2C(=O)NC[C@H](CCC(=O)NCc2cccs2)N3C)cc1
-1.7%[70.6 µM] | COC(=O)C(=O)N1CCN2C(=O)N(Cc3ccc(C)cc3)C[C@H]2C1
9.2% | COc1ccc(C(=O)N2C[C@@H](F)C[C@H]2C(=O)N2CCCCC2)cc1
-0.7%[70.6 µM] | Cc1cc(C)c(CNC(=O)c2nc(-c3ccnn3C)cc3c2ccn3C(C)C)c(=O)[nH]1
-2.7% | COc1ccc(C(=O)N2CCC(CO)(CN3CCCC3)CC2)cc1C
3.3%[70.6 µM] | Cc1noc2c(-c3ccnn3C)cc(-c3ccc(F)cc3)nc12
-18.6% | CCC1=C(C(=O)OC)C(c2cccc(OC)c2OC)N2C(CC(=O)N3CCOCC3)=CSC2=N1 (stereo unspecified)

# Looked up by structure from above:
hNpr1 antagonist | mol
-3.3% | CNC(=O)[C@H]1C[C@H](Oc2ccccc2)CN1Cc1ccc(OC(F)(F)F)cc1
-13.8% | COc1ccccc1CC(=O)N1CCN(c2cc(-c3ccccc3)[nH]n2)CC1

# (list continues)
hNpr1 antagonist | mol
2.5% | COc1cc(=O)n2c(c1C(=O)Nc1ccc(Cl)cc1C)CCCC2
-1.5% | Cc1noc(C)c1S(=O)(=O)NCC1Cn2cccc2C(=O)N1C (stereo unspecified)
-7.3% | CNC(=O)N1CCC(Cc2nncn2C(C)C)C1 (stereo unspecified)
-3.0% | COCC(=O)NC1CCC12CCN(S(=O)(=O)c1cn(C)cn1)CC2 (stereo unspecified)
-14.2% | Cc1ccc(C)c(-c2[nH]ncc2CN2CCCn3nc(CO)cc3C2)c1
-3.4% | O=C(Nc1ccc(F)cc1)c1cc(-c2ccc[nH]2)n[nH]1
-7.2% | CCN1CCN(C(=O)Cn2c(C)ccc(NC(=O)Nc3ccc(C)cc3)c2=O)CC1
-2.3%[70.6 µM] | Cn1c(CO[C@H]2CN(Cc3ccc(C#N)cc3)C[C@H]2F)nc2ccccc21
0.9%[70.6 µM] | COc1cc(-c2ccnc(-c3nnc(C)n3Cc3ccncc3)c2)ccn1
-2.2% | O=C1CC(c2ccccc2)NCCCCCCN1 (stereo unspecified)
12.6µM* | Cc1noc(-c2ccco2)c1C(=O)NCc1cccc2ccccc12
-1.1% | O=C1CCC2(CCCN(c3ncc(Cl)cc3F)C2)CN1Cc1cccnc1 (stereo unspecified)
-7.4% | CCc1nncn1C1CCN(S(=O)(=O)c2ccc(C)c(C)c2)CC1
10.8% | COCCN1C(=O)[C@H]2CN(Cc3cc(F)c(F)cc3F)C[C@H]2C1=O
-7.5% | CN(C)c1nccnc1OC1CCN(C(=O)c2ccn[nH]2)C1 (stereo unspecified)
18.1% | Cc1cn2nc(C(=O)NCc3ccccn3)cc2c(=O)[nH]1
1.7% | Cc1nc2c(c(NC3CC3)n1)CCN(C(=O)CCc1ccncc1)CC2
-4.7% | Cc1ccc(C(=O)N2CCCC(n3cc(-c4nc(C5CC5)no4)nn3)C2)cc1F (stereo unspecified)
-23.1%[70.6 µM] | O=c1cc(-c2cnccn2)oc2c(Nc3cccc(OC(F)(F)F)c3)nccc12
-0.3% | O=C(CC1CCCC1)N1CCC(Nc2cccnc2)C1 (stereo unspecified)
-1.9% | O=C(NCc1ccccn1)C1CCCN(C2CCN(C(=O)Cn3cnnn3)CC2)C1 (stereo unspecified)
0.7%[70.6 µM] | Cc1nn(Cc2ccccc2)c(C)c1[C@@H]1C=C[C@@H](NC(=O)CSCC(=O)O)C1
-5.4% | Cc1ccc(C)c(OCc2cc(C(=O)N3CCC(N4CCSCC4)CC3)no2)c1
2.6% | Cc1ccc2c(c1)nc1n2[C@@H](CN(Cc2ccc(C(=O)O)cc2)Cc2ccc(C(=O)O)cc2)COC1
6.0% | Cn1nnnc1C1CCCN(C(=O)Nc2ccccc2)C1 (stereo unspecified)

# The results go on:
hNpr1 antagonist | mol
-0.6% | N[C@@H](CO)c1nc(C2CCOCC2)nn1-c1ccccc1F
1.8%[70.6 µM] | COc1ccccc1CC(=O)N1CCCc2ncc(C(=O)NCc3cccc(F)c3)cc21
-2.3% | Cc1cc(Cn2cc3c4c(cccc42)[C@H](CC(C)C)N[C@H](C(=O)NCc2ccc(C)o2)C3)no1
0.0%[70.6 µM] | COc1ccc(CN2C[C@H]3CN(Cc4nccn4C)CCN3C2=O)cc1
-15.2% | O=C1NCCCCCCN(C(=O)c2ccncc2)[C@H]2C[C@H](c3nc(-c4cnccn4)no3)C[C@@H]12
0.3% | CCC1Oc2ccc(NC(=O)c3ccc([N+](=O)[O-])cc3)cc2CN(Cc2ccccc2F)C1=O (stereo unspecified)
-0.7% | CCOc1cccc(CNc2ncncc2-c2nc(-c3ccccc3)no2)c1
4.6%[70.6 µM] | CC1=C[C@@H](CNC(=O)C2CC2)[C@H](C(C)C)C[C@H]1Cc1nnc(-c2cncn2C)o1
2.1% | CCCCC(=O)N1CCC2(CC1)SCC(=O)N2c1ccc(Cl)cc1
-3.7%[70.6 µM] | Cc1oc(C(O)c2ccccc2)nc1C(=O)Nc1ccc2c(c1)CC(=O)N2 (stereo unspecified)
7.6% | COc1ccc2cc(C(=O)N3CC4CC(C3)[C@H]3CCCC(=O)N3C4)[nH]c2c1 (stereo partly specified)

# Compound activity deposited in PubChem by National Center for Advancing Translational Sciences (NCATS).

# This is a subset, so the mix of outcomes need not match the whole.
